Screens: PubChem, National Center for Advancing Translational Sciences (NCATS)
D2 agonist = Beta-Arrestin HTS for Positive Allosteric Modulators of the Human D2 Dopamine Receptor: Agonists | DiscoveRx PathHunter D2 beta-arrestin, luminescence, 90 min; 100% = 57 uM dopamine signal | actives 0.084% (n = 360,000) | AID 624465, 2012 | activation, % (test concentration not listed) | D(2) dopamine receptor (Homo sapiens), P14416; in the data active = activation above about 40%; inconclusive = about 15% to 40%; inactive = below about 15%; further: compound concentration not given in the record; the text of the record calls up to 30% inactive
Target sequence (P14416 whole entry, looked up): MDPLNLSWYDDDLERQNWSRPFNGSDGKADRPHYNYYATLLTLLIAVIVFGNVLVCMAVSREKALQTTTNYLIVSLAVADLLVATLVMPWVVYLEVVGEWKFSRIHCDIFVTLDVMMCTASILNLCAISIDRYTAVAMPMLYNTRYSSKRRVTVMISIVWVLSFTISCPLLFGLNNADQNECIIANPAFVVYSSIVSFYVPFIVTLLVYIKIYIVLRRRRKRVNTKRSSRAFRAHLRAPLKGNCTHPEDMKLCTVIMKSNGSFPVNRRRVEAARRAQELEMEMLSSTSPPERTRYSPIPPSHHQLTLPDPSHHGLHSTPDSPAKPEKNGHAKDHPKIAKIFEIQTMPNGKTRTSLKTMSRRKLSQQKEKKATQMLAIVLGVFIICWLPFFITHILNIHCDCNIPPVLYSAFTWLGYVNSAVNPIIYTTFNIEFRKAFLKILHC
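Agonist mode: compounds alone added to overnight-plated D2 PathHunter cells for 90 min at 37 C, with 57 uM final dopamine (EC100) defining full response. Beta-arrestin recruitment detected by chemiluminescent reagent, read after 1 h at ambient temperature.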
Six1-Eya2 inh = qHTS Assay for Inhibitors of the Six1/Eya2 Interaction; actives 0.56% (n = 360,000); AID 651725, 2012; AlphaScreen GST-Six1/His-Eya2 binding, biochemical; hits give low values; control for the full effect not named in the record; activity change, % (no concentration beside the values); in the data active = activity change below about -65%; inconclusive = about -30% to -65%; inactive = above about -30%; further: on the % scale 0 is the no-effect control and ±100 the full control effect; compound concentration not given in the record
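GST-Six1 + His-Eya2 (5X stock: 250/500 nM); Tris pH 8.0, 300 mM NaCl, 0.05% BSA, 0.02% Tween 20; GSH donor/Ni acceptor beads; 1 h 37 °C dark; AlphaScreen readout.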
TRPV1 PAM = HTS Assay for Compounds that Act as Potentiators of the Vanilloid Receptor 1; Transient receptor potential cation channel subfamily V member 1 (Homo sapiens), Q8NER1; TRPV1-expressing cells, Fluo-8 calcium influx, capsaicin EC20 potentiation; host cell line not named in the record; control for the full effect not named in the record; potentiation, % at 8.33 µM; actives 0.02% (n = 320,000); AID 540277, 2011; active means potentiation above 80%; inconclusive means 30% to 80%; inactive means below 30%; further: 0% is about no effect
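TRPV1-expressing cells were cultured overnight at 35.5C and loaded with Fluo-8 calcium dye for 40 to 90 min at room temperature. After a 10 s baseline, compound was added and calcium influx was read kinetically for 3 min (ex 480/em 520 nm).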
PINK1 expr mod = A Quantitative High throughput Screen to Identify Chemical Modulators of PINK1 Expression; PINK1 immunofluorescence, high-content cytometry, 24 h; Potency, µM (top dose mostly 76.6 µM), for the others: at the top dose activation (PINK1 increase), hits mostly activators; actives 0.2% (n = 410,000); active = well fitted activation curve with a large enough effect; inconclusive = small, poorly fitted or top-dose-only effect; inactive = flat fitted curve, though single readings scatter; cell line not stated here;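 further: potency means the concentration at half of the fitted maximal effect; % of control where 0% means no effect; nearly all actives have a fitted effect of over 65% in size; a mitochondrial uncoupler was the plate control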
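PINK1 protein, normally rapidly degraded, was detected by immunofluorescence after 24 hour compound treatment of a stable cell line. Titration data (5 concentrations) came from laser-scanning cytometry, with CCCP-treated wells as controls.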
Sfp PPTase inh = qHTS Assay for Inhibitors of Bacillus subtilis Sfp phosphopantetheinyl transferase (PPTase). 4'-phosphopantetheinyl transferase ffp (Bacillus subtilis), Q9F4F7. Biochemical Sfp PPTase activity, qHTS. Potency, µM, for the others: max response, negative = inhibition, most hits filed as inhibitors. actives 3.5% (n = 310,000). AID 1490, 2009; active means well fitted inhibition curve with a large enough effect; inconclusive means small, poorly fitted or top-dose-only effect, or another doubt; inactive means no such curve, though single readings can be large or run the other way;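 further: the enzyme is Sfp with the accession as filed and its product quenches rhodamine fluorescence; potency means the concentration at half of the fitted maximal effect; 0% = enzyme reaction without inhibitor and -100% = no enzyme wells; top concentration of the series not given in the record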
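With Hepes-Na pH 7.6 buffer containing 10 mM MgCl2, Sfp (15 nM) modified BHQ-2-YbbR (12.5 uM) using rhodamine-CoA (5 uM). Two reads 30 minutes apart at 525/598 nm yielded each well's rate.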
CtBP-E1A blk = qHTS Assay for Inhibitors of the CtBP/E1A Interaction. CtBP / adenovirus E1A interaction (AlphaScreen). actives 0.49% (n = 340,000). AlphaScreen GST-E1A/His-CtBP binding, 1536-well; hits give low values; control for the full effect not named in the record. activity change, % (test concentration not listed); in the data active means activity change below about -65%; inconclusive means about -30% to -65%; inactive means above about -30%; further: on the % scale 0 is the no-effect control and ±100 the full control effect; compound concentration not given in the record
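AlphaScreen with 125 nM GST-E1A and 125 nM His-CtBP (5X stocks) in Tris pH 8.0, 300 mM NaCl, BSA, Tween 20, TCEP. Compounds preincubated 2 h at 37 deg C, then glutathione donor/nickel acceptor beads added for 1 h at 37 deg C in dark.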
D2 potentiator = Beta-Arrestin HTS for Positive Allosteric Modulators of the Human D2 Dopamine Receptor: Potentiators; DiscoveRx D2 beta-arrestin cells, luminescence, 90 min; 100% = 57 uM dopamine signal; D(2) dopamine receptor (Homo sapiens), P14416; potentiation, % (test concentration not listed); actives 0.23% (n = 360,000); active = potentiation of 50% or more; inconclusive = 30% to 50%; inactive = 30% or less;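 further: compound concentration not given in the record; tested on top of an EC20 dose of dopamine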
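PathHunter D2 cells, attached overnight at 37 deg C, received compound in DMSO plus dopamine at EC20 (50 nM final) for 90 min at 37 deg C. Beta-arrestin recruitment was read as luminescence after 1 h with detection reagent at ambient temperature.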
The depositor's hits bear a star; ? = inconclusive; / = no result given; & = joins results of further samples; [ ] = another dose, or the depositor's remark.

Structure,TRPV1 PAM,PINK1 expr mod,Six1-Eya2 inh,Sfp PPTase inh,D2 potentiator,CtBP-E1A blk,D2 agonist
O=C(/C=C/c1ccccc1)NCC(=O)N/N=C/c1ccco1,21,-1.0%,7,9%,-13,-2,-0.1
CCOC(=O)c1nnn(-c2nonc2N)c1-c1ccccc1,-5,5.6%[38.3 µM],3,19%,-2,10,-0.5
CCC(=C(c1ccc(OC)cc1)c1ccc(OC)cc1)c1cn(CC(O)CN2CCN(C)CC2)c2ccccc12 (stereo unspecified),0,-5.7%,-27,50µM*,-5,-1,-3.2
Cc1noc(C)c1CSc1cc(C)c2ccccc2n1,-9,10%[38.3 µM],22,-18%,-2,5,-0.5
O=C(O)CCCCn1c(SCC(=O)Nc2ccccc2C(F)(F)F)nc2ccsc2c1=O,11,6.9%&1.7%,-17,22%,-3,0,-2.2
COc1ccc(CCNC(=O)Nc2ccc3c(c2)c(=O)n(C)n3Cc2ccc(Cl)cc2)cc1OC,/,0.6%,-20,/,8,-7,?
C=CCn1c(=O)c(C(=O)NCCc2ccccc2)c(O)c2ccccc21,5,/,30,0%,10,11,0.4
CCOC(=O)C1=C(N)OC2=C(C(=O)CCC2)C1c1cccnc1 (stereo unspecified),7,-3.8%,13,-11%,-2,0,-1.0
CCNC(=O)/C(=C\c1ccccc1)NC(=O)/C=C/c1ccccc1,4,3.5%,5,7%,5,17,2.3
CN(C)CCNc1oc(COc2ccc(Cl)cc2Cl)nc1C#N,7,-1.6%[38.3 µM],-2,4%,-2,-4,-3.5
COc1ccc(C2C(C(=O)c3ccco3)=C(O)C(=O)N2CC2CCCO2)cc1 (stereo unspecified),-4,2.4%,1,18%,-5,1,0.6
CCc1ccc(NC(=O)COc2ccc(/C=C(/C#N)c3nc4ccccc4[nH]3)cc2OC)cc1,-11,0.4%,6,?,6,-16,1.0
Cc1cccc(NS(=O)(=O)c2ccc3c(c2)Cc2cc(S(=O)(=O)Nc4cccc(C)c4C)ccc2-3)c1C,-13,4.8%,-4,-3%,7,-2,-5.0
Cc1[nH]c(=O)c(C#N)c(C)c1CCC(=O)Nc1cc(S(C)(=O)=O)ccc1Cl,2,1.2%,-1,-6%,2,-3,-1.8
CCOC(=O)c1c(NC(=O)CSc2nncs2)sc(C)c1-c1ccccc1,4,1.3%,-19,-19%,-14,-27,0.1
CC(=O)Nc1ccc(Oc2cc(C#N)c(C#N)cc2N2CCOCC2)cc1,-8,3.3%,0,17%,7,-1,1.8
CCCN(c1ccc(C(C)C)cc1)S(=O)(=O)c1c(C)noc1C,0,0.8%,5,-2%,-10,2,-3.2
CCN(CC)S(=O)(=O)c1cc(NC(=O)CSc2nnc(-c3cccs3)o2)ccc1C,3,-0.9%,0,13%,-12,-7,0.4
CCCCc1ccc(N=N/C(C(=O)Nc2ccc(NC(C)=O)cc2OC)=C(/C)O)cc1,8,?,-3,-14%,-7,-6,-2.9
O=C(C[C@@H]1C/C=C/CCCC(=O)O[C@H](c2ccccc2)CNC1=O)N[C@H](CO)Cc1ccccc1,/,0.4%,1,/,-2,5,-3.0

Remaining list, next part.
Structure,TRPV1 PAM,PINK1 expr mod,Six1-Eya2 inh,Sfp PPTase inh,D2 potentiator,CtBP-E1A blk,D2 agonist
O=S(=O)(c1ccc(Cl)cc1)N1CCCC1c1nc(-c2ccc(Cl)cc2)no1 (stereo unspecified),-1,0.1%,10,17%,-4,13,-1.9
O=C(CCCc1nc(-c2ccccc2)no1)Nc1cccnc1,-2,0.0%,1,2%,7,3,1.4
CC(C)(C)c1ccccc1OCCCCCn1ccnc1,-18,?,-15,56µM*,-12,-11,0.7
COc1ccc(-n2c(Cc3cccn3C)nnc2SCC(=O)N2CCC(C)CC2)cc1,-6,-4.1%,-4,?,-1,-1,-3.0
CCc1cc(=O)[nH]c(SCc2cccnc2)n1,14,2.0%,4,11%,3,/,-1.0
COc1ccc(OC)c(NS(=O)(=O)c2ccc3c(c2)CCC(=O)N3)c1,-6,4.9%[38.3 µM],-1,10%,-8,-1,2.3
CCc1ccc(-c2cc(C(F)(F)F)n3nc(C(=O)Nc4cnn(Cc5ccccc5C)c4)cc3n2)s1,/,?,4,21%,2,3,-3.6
O=C1CCSc2c1ccc1ccccc21,/,-6.3%,37,/,-12,0,-5.3
COc1ccc(OCCNC(=O)c2ccccc2OCC(=O)Nc2ccc(NC(C)=O)cc2)cc1,-1,-1.1%,-11,5%,2,-8,-5.2
CC(=O)Nc1ccc(NC(=O)c2c(-c3ccccc3)noc2C)cn1,7,1.3%,0,19%,-3,-1,-2.5
CCCn1c(CN2CCN(C(C)=O)CC2)nc2cc(S(=O)(=O)N(C)C)ccc21,-7,3.0%,-11,5%,0,0,0.3
COc1ccc(N2C(=O)CCC(C(=O)N3CCOCC3)C2c2ccc(F)cc2)cc1 (stereo unspecified),3,1.1%,6,10%,-6,-1,-1.9
N#C/C(=C/c1cccs1)c1ccccn1,1,3.1%,5,17%,-4,11,-2.3
O=S1(=O)C=C(Sc2nc3cc(Cl)ccc3o2)c2ccccc21,-7,-0.4%,-7,?,-6,1,-1.4
CN(C)S(=O)(=O)c1ccc(N2CCCC2)c(C(=O)NC(c2ccccc2)c2ccccc2)c1,-8,1.6%,-4,-11%,-9,-2,-3.4
O=C(Nc1ccc(C2SCCS2)cc1)c1ccccc1,-6,7.2%,0,-11%,-5,10,1.0
O=C(c1ccc(Cl)c(Cl)c1)N1CCC(=O)N(C(CO)Cc2ccccc2)CC1 (stereo unspecified),/,0.6%,1,/,-8,1,-4.8
Fc1ccc2nc3[nH]c4ccccc4c3nc2c1,6,3.0%,-3,3%,0,0,0.3
O=C(Oc1ccccc1)c1cc(O)c(O)c(O)c1,/,1.2%,-29,/,2,-19,3.4
COc1cnc(-c2ccccn2)nc1Sc1c(Cl)cccc1Cl,11,-0.8%[38.3 µM],-9,21%,-15,-21,-5.1

Following part:
Structure,TRPV1 PAM,PINK1 expr mod,Six1-Eya2 inh,Sfp PPTase inh,D2 potentiator,CtBP-E1A blk,D2 agonist
C=CCn1c(C(CCCC)CC(O)COCC(C)C)n[nH]c1=S (stereo unspecified),1,7.8%,6,?,1,10,3.3
COc1cc(/C=C(\NC(C)=O)C(=O)Nc2cccc(O)c2)ccc1OC(C)=O,-18,-1.0%,8,-4%,-2,1,0.0
CCCn1nnnc1NCc1ccccc1C,-8,-0.7%,2,21%,-5,1,-6.8
COc1ccc(CNC(=O)CN(c2ccc(C(C)C)cc2)S(=O)(=O)c2c(C)noc2C)cc1,-3,3.5%,0,0%,1,/,-6.0
CC(=O)Nc1ccc(S(=O)(=O)NCC2CCC(C(=O)NC3CCCCCC3)CC2)cc1 (stereo unspecified),-7,27%,6,-17%,4,9,-4.5
Cc1ccc(OCc2cc(C(=O)N3CCCC3)no2)cn1,5,-1.4%,-7,10%,2,0,4.2
COc1ccc(NC(=O)C2CCCN(c3ncnc4onc(-c5ccc(F)cc5)c34)C2)cc1 (stereo unspecified),-3,0.3%,0,-3%,-8,/,3.0
O=C(COC(=O)c1c(F)cccc1F)NCc1cccs1,/,-1.5%,6,/,-9,5,-3.5
COc1ccc(CCNC(=O)C2CCCN2C(=O)Nc2ccc(F)cc2)cc1OC (stereo unspecified),-7,0.5%,11,19%,-4,15,-0.4
CCCCCCC(=O)NNC(=O)c1c(O)c2ccccc2n(CC)c1=O,13,-4.6%,-18,26%,1,-8,-3.2
O=C1Nc2ccccc2N(C(=O)c2c(F)cccc2F)C1c1nc2ccccc2[nH]1 (stereo unspecified),/,1.3%,-12,/,/,-6,/
CCOC(=O)COn1c2c(c3c4no[n+]([O-])c4ccc31)CCCC2,6,0.9%,9,16%,-4,-2,0.6
CC(C)C(=O)Nc1cccc(NC(=O)c2cccc(F)c2)c1,-3,0.0%,2,10%,-4,/,-1.4
Cc1nc[nH]c(=O)c1Br,-9,0.2%,7,7%,-4,-14,-4.4
CCCN(C(=O)Cc1c(C(=O)O)n(C)c2ccccc12)c1cccc(C)c1,6,2.3%,0,10%,-2,/,-3.7
Cc1c(-c2ccccc2)nc2ccccc2c1C(=O)Oc1ccc([N+](=O)[O-])cc1,3,5.4%,-12,?,-5,-21,-3.0
Cc1cc(C)c2c(n1)nn1c(C3CC3)cc(C(F)(F)F)nc21,/,0.7%,15,/,-1,10,-2.9
Oc1ccc(/C=C/c2ccc3cccc(O)c3n2)cc1Br,-3,?,-4,-8%,-4,-9,7.3
O=c1oc2cc(Oc3c([N+](=O)[O-])cc(C(F)(F)F)cc3[N+](=O)[O-])ccc2c2c1CCCC2,16,?,-10,2%,-6,-11,-3.0
O=C(NC1CCN(Cc2ccccc2)CC1)c1cncc(Br)c1,-11,-1.2%,-2,13%,-29,6,-2.0

(cont.)
Structure,TRPV1 PAM,PINK1 expr mod,Six1-Eya2 inh,Sfp PPTase inh,D2 potentiator,CtBP-E1A blk,D2 agonist
COc1ccc(/C=C(/NC(=O)c2ccco2)C(=O)N2CCCCC2)cc1,-1,0.5%,-2,19%,-18,2,-5.8
COc1ccc(N(C(=O)CSCC(=O)Nc2cc(C)on2)C(C(=O)NC2CCCCC2)c2ccc(O)c(O)c2)cc1 (stereo unspecified),3,-1.0%,-1,7%,0,-5,3.5
CN1CCN(S(=O)(=O)c2ccc(C(F)(F)F)cc2)C(c2ccccc2)C1 (stereo unspecified),2,2.2%,0,/,-8,/,-1.9
CCc1nnc(N/N=C/c2ccc(-c3ccc([N+](=O)[O-])cc3)o2)n1N,5,-1.1%,-12,?,22,-28,7.0

Exported with each value named: part of the list above
smiles: CC(C)(C)c1ccccc1OCCCCCn1ccnc1
  TRPV1 PAM = -18	PINK1 expr mod = ?	Six1-Eya2 inh = -15	Sfp PPTase inh = 56µM*	D2 potentiator = -12	CtBP-E1A blk = -11	D2 agonist = 0.7

smiles: CCN(CC)S(=O)(=O)c1cc(NC(=O)CSc2nnc(-c3cccs3)o2)ccc1C
  TRPV1 PAM = 3	PINK1 expr mod = -0.9%	Six1-Eya2 inh = 0	Sfp PPTase inh = 13%	D2 potentiator = -12	CtBP-E1A blk = -7	D2 agonist = 0.4
